Assay outcomes (PubChem)
gsp ag: agonists of gsp mutant (McCune-Albright syndrome); AID 624287; Potency, µM (titrated, usually from 76.9 µM), without a hit: at the top dose activation (cAMP increase), most hits filed as activators; gsp mutant cells, cAMP HTRF, 30 min; control for the full effect not named in the record; 0.13% of 340,000 active; active = well fitted activation curve with a large enough effect; inconclusive = small, poorly fitted or top-dose-only effect, or another doubt; inactive = no such curve, though single readings can be large or run the other way; cell line not stated here;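 also: phosphodiesterase inhibitor Ro 20-1724 added with compounds to block cAMP breakdown; potency is read from the fitted curve at half-maximal effect; nearly all actives have a fitted effect of over 60% in size; about a fifth of the inactives were tested at one dose only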
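Cells stably selected in G418 were plated at 2000/well, grown 16-24 hr, then given compounds in DMSO with the PDE inhibitor […] (300 uM solution added) for 30 min at 37C; cAMP was read by HTRF.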
ClpP mod: qHTS Assay for Activators of ClpP | Potency, µM (series often up to 57.5 µM), without a hit: top-dose activity change, negative = active | purified B. subtilis ClpP, FRET peptide cleavage, 20 min | ATP-dependent Clp protease proteolytic subunit (Bacillus subtilis (strain 168)), P80244 | 1.9% of 340,000 active; active = well fitted falling curve with a large enough effect; inconclusive = small, poorly fitted or top-dose-only effect; inactive = no such curve, though single readings can be large or run the other way; also: potency is read from the fitted curve at half-maximal effect; the source files actives as falling curves though it sought activators and does not explain the sign; nearly all actives have a fitted effect of over 65% in size; many hits overshoot -100%
Target sequence (P80244 whole entry, looked up): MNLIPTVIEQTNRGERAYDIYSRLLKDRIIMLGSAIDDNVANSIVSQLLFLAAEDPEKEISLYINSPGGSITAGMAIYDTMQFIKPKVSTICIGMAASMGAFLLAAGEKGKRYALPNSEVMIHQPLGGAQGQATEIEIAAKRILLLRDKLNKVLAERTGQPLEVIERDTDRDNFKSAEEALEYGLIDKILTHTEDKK
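ClpP 10 microg/mL final, pH 8 Tris/KCl buffer with BSA, glycerol, Tween-20; compound pinned in; FRET-FV substrate; RT 20 min; Ex320/Em430; ΔFRET vs ADEP 5.8 microM, DMSO, no enzyme.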
gsp antagonist: gsp mutant antagonism; gsp-mutant cells, cAMP HTRF, 30 min; control for the full effect not named in the record; Potency, µM (doses to about 76.9 µM), for the others: at the top dose activity change, negative = inhibition, most hits filed as inhibitors; 0.4% of 340,000 active; AID 624288; active = falling curve of any shape with a large fitted effect; inconclusive = falling curve, mostly with a smaller effect; inactive = flat or rising curve; cell line not stated here;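 also: intracellular cAMP measured with PDE inhibitor Ro 20-1724 present during compound exposure; potency is read from the fitted curve at half-maximal effect; % is scaled to controls: 0 for no effect and ±100 for the full control effect; nearly all actives have a fitted effect of over 65% in size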
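Cells in G418 medium, seeded 16-24 h, 37C; buffer exchange to DPBS + 1 mM CaCl2, 0.5 mM MgCl2, 0.05% BSA; cpds in DMSO + […] (300 uM stock), 30 min 37C; HTRF cAMP detection.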
Menin MLL FP FL: displaces fluorescein MLL peptide from human menin. Fluorescence polarization, fluorescein-MLL peptide displacement from menin. FP activity change, % at 61.4 µM. 290,000 tested, under 10 active. AID 1766; inconclusive = falling polarisation curve, or a change in total fluorescence; inactive = total fluorescence flat and polarisation flat or rising; no compound was filed as active; the % refers to the polarisation; negative = inhibition;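 also: % of control where 0% means no effect; inhibitors lower the polarisation; unlabelled MLL peptide was the positive control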
TRPML1 ag: agonists of human TRPML1 channel; Q9GZU1; TRPML1-expressing cells, Ca2+ dye fluorescence, FDSS; host cell line not named in the record; reference of the full effect not given here; activation, % (test concentration not listed); 0.12% of 410,000 active; in the data active = activation above about 50%; inconclusive = about 30% to 50%; inactive = below about 30%; also: 0% is about no effect; the text of the record puts the active cut at 80%
Target sequence (Q9GZU1 whole entry, looked up): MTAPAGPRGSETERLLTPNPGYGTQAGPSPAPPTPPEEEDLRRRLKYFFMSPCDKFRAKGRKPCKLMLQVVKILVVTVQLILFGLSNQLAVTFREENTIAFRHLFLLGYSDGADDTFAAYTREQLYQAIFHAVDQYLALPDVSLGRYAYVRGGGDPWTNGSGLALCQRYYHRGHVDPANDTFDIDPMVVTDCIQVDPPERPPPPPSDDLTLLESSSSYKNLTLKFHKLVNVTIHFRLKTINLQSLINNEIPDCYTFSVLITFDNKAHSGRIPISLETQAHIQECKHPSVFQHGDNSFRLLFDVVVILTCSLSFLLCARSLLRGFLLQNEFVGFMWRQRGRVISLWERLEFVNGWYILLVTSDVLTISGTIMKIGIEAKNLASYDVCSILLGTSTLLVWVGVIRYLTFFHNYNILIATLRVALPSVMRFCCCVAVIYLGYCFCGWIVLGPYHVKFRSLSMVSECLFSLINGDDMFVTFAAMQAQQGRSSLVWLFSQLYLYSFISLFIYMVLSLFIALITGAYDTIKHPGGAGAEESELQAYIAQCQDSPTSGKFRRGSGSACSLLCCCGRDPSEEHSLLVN
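Tetracycline-induced TRPML1-DL cells are seeded and incubated overnight before loading with a no-wash Ca2+ dye and quencher. Agonist activity is taken from the 110 s fluorescence read following compound pin-transfer on an FDSS, before EC80 54-4 challenge.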
TRPML1 blocker: blocks the human TRPML1 channel | Q9GZU1 | TRPML1-inducible cells, Ca2+ dye fluorescence, FDSS; stronger effect = lower value; inhibition of EC80 agonist-evoked calcium signal | activity change, negative = inhibition, % (concentration not given with the values) | 0.02% of 390,000 active | AID 624415; in the data active means activity change below about -50%; inconclusive means about -30% to -50%; inactive means above about -30%;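 also: stimulus is agonist 54-4 at its EC80 concentration; % is scaled to controls: 0 for no effect and ±100 for the full control effect; compound concentration not given in the record; the text of the record puts the active cut at -80%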
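TRPML1-DL cells, Tet-induced overnight (~16 h, 37 °C) at 1,500 cells/well, were loaded with Ca8 no-wash dye plus quencher for 45-90 min at room temperature. Compounds were pinned during FDSS kinetic reading; agonist 54-4 at EC80 (4 uM final) then added.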
Numbers without * were called inactive; ? = inconclusive; . = no result given; & = joins results of further samples; [ ] = another dose, or the depositor's remark.

Structure	gsp ag	ClpP mod	gsp antagonist	Menin MLL FP FL	TRPML1 ag	TRPML1 blocker
Cc1nc2ccn(Cc3ccccc3)c(=O)c2cc1C(=O)N1CCN(c2ccc(F)cc2)CC1	23%	-15%&-14%	-6%	-9.0	-0.6&-0.5	20&-3
Cc1ccc([C@@H]2CC=C(C(=O)O)[C@H](c3ccc(F)cc3)N2S(=O)(=O)c2ccccc2C)cc1	.	0.2%	-3%	.	0.4	30
CCOc1ccc(N(C(=O)c2ccc3c(c2)OCO3)C2C=CS(=O)(=O)C2)cc1 (configuration not stated)	-58%[inhibitor]	1.6%	-1%	1.3	0.2	-3
CCC1CCCCN1CCCNC(=O)c1cn(C)c2ccc(S(=O)(=O)N(C)C3CCCCC3)cc2c1=O (configuration not stated)	6%	0.1%&-5.9%	-27%	-1.5	0.1&0.2	-6&6
CC(=O)Nc1ccc(S(=O)(=O)Oc2ccc(/C=C3\SC(N)=NC3=O)cc2)cc1	14%[15.4 µM]	.	15%	-1.0	0.1	-4
Cc1c(CNC2CCCCCC2)c(C(=O)O)c(C)n1Cc1cccc(Cl)c1	.	-0.1%	.	.	0.6	13
CCn1cc(C(=O)N[C@@H](CCSC)C(=O)NCCO)c(=O)c2cc3c(cc21)OCO3	9%	3.5%	8%	0.2	-0.3	-17
N=c1c(S(=O)(=O)c2ccc(Cl)cc2)cc2c(=O)n3ccccc3nc2n1Cc1ccco1	?	3.4%	-15%	?	5.5	-3
Cn1c(=O)c2c(SCC(=O)N3CCc4ccccc43)nc(-c3cccc(F)c3)nc2n(C)c1=O	.	2.1%	.	.	-0.7	?
CCOC(=O)N1CCN(C(=O)c2ccc(N(Cc3ccc(Cl)cc3)S(C)(=O)=O)cc2)CC1	-41%[inhibitor]	0.6%	-28%	4.8	0.1	-1
Cc1cc(C)c(CN2CCC(n3nccc3NC(=O)CCOc3ccccc3)CC2)cc1C	12%	1.3%	6%	3.7	0.5	47
COc1ccc2c(c1)OC[C@H]1[C@H]2N2C(=O)CN(C)C(=O)[C@@]2(C)[C@H]1c1ccccc1	1%	-2.2%	8%	.	0.3	-8
CCOC(=O)C1CCN(C(=O)CCNC(=O)Cn2ccc3ccccc3c2=O)CC1	16%	?	9%	-3.6	-0.6	1
COCCN(CCOC)Cc1c(C)[nH]c2c(C)c(C)ccc2c1=O	5%	2.6%	9%	3.7	-0.2	-7
COc1ccc(-c2csc(N(CCCN(C)C)C(=O)c3ccc(OC)c(OC)c3)n2)cc1	-89%[inhibitor]	1.6%	.	.	-0.6	-2
CCCCCCCCc1nc(=S)[nH][nH]1	-7%	0.6%	3%	-3.4	1.2	2
COc1ccc(CCNC(=O)COC(=O)Cc2cccc3ccccc23)cc1	-22%	-1.5%&0.6%	6%	0.1	-0.4&-0.5	4
COc1ccc(NC(=O)CN(C)C(=O)c2ccc3c(c2)CC(c2ccccc2)OC3=O)cc1 (configuration not stated)	-19%	-0.2%	.	.	-0.9	-9
COc1cc(OC)c(NC(=O)NCCn2nnc3cc(S(=O)(=O)N(C)C)ccc32)cc1Cl	.	2.8%	.	.	-1.1	2
CC(=O)NNC(=O)c1csc(-c2csc(C)n2)n1	-10%[15.4 µM]	32µM*	5%	4.5	0.0	8
CCC(NC(=O)Nc1cccc(C)c1)c1c(-n2cccc2)sc2c1CCN(C)C2 (configuration not stated)	.	2.0%	.	.	2.0	29
Cc1ccc(C)c(NC(=O)CN2C(=O)COc3ccc(S(=O)(=O)N4CCCC4)cc32)c1	?	1.4%	0%	0.8	-1.2	7
O=C(NCc1cccnc1)C(=O)Nc1ccc([N+](=O)[O-])cc1	?	.	-1%	2.5	-0.7	12
CCc1ccc(N2C(=O)CC(N3CCC(C(=O)OC)CC3)C2=O)cc1 (configuration not stated)	0%	-0.8%	5%	-1.5	-0.1	7
CCC(NC(=O)CCc1nnc(-c2cc(C)on2)o1)C12CC3CC(CC(C3)C1)C2 (configuration not stated)	-43%[inhibitor]	1.0%	-1%	2.7	0.3	-10
CC(C)(C)S(=O)(=O)/C(C#N)=C/c1sccc1C1OCCO1	-2%[15.4 µM]	1.5%	-1%	5.7	0.1	-1
CCOC(=O)C1=C(c2ccccc2)N=c2sc(=Cc3cc(OC)c(OC)c(OC)c3)c(=O)n2C1c1cccs1 (configuration not stated)	.	-0.9%	.	.	14	-7
CC(=O)N1CCc2c(sc(NC(=O)CCS(=O)(=O)c3ccccc3)c2C(N)=O)C1	25%	-28%	10%	4.5	1.6	2
CN(Cc1ccon1)C(=O)CC1C(=O)NCCN1CC1CCCCC1 (configuration not stated)	-2%[15.4 µM]	.	14%	-7.2	-0.3	-2
Cc1nnc(C)n1N1C(=O)c2cccc3cccc(c23)C1=O	-46%[inhibitor]	?	7%	-2.5	-0.6	-1
CN(C)S(=O)(=O)N1CCN(c2ccccc2Cl)CC1	19%	-1.1%	-2%	4.7	0.3	-15
CCn1c(Cc2ccccc2)nnc1SCC(=O)Nc1nc(C)c(C)s1	2%	0.1%	14%	9.6	0.9	-7
C[C@@H]1CN([C@@H](C)CO)C(=O)CCCn2nncc2CO[C@H]1CN(C)C(=O)Nc1ccc(C(F)(F)F)cc1	?	-2.9%	.	.	1.1	?
O=C(CCn1nnc(-c2cccs2)n1)NCc1ccccc1Cl	-3%	-2.0%	-2%	3.4	-0.6	-18
CCc1ccc(C(=O)NNC(=O)CCN2CCN(Cc3ccccc3)CC2)cc1	9%[15.4 µM]	.	.	-1.0	-0.1	14
C=CCOC(=O)C1=C(C)NC(=O)NC1c1ccc2c(c1)OCO2 (configuration not stated)	4%	-0.9%	-7%	-9.8	1.7	-5
CN1N=C(C(F)(F)F)CC1=O	41%[15.4 µM]	.	10%	-5.8	-0.1	-8
O=C(NCCc1c[nH]c2ccccc12)C1Cc2ccccc2CN1C(=O)c1ccco1 (configuration not stated)	-42%[inhibitor]	-1.6%	-1%	1.7	-0.1	-2
CCc1ccc(S(=O)(=O)N2CCN(C(=O)c3cccnc3)CC2)cc1	-5%	-0.1%	-6%	3.8	1.0	-2
CC(=O)c1c(C)[nH]c(C(=O)COC(=O)CCSc2ccccc2)c1C	-20%	3.4%	-22%	9.0	-0.1	-4
Cc1cccc(N2CCN(CCCNC(=O)C3CCCN(c4ncnc5c4nc4n5CCCCC4)C3)CC2C)c1 (configuration not stated)	29%	.	-22%	0.0	0.8	0
CCOC(=O)c1[nH]nc(C(=O)c2ccc(Br)cc2)c1O	-2%	-0.5%	-4%	0.8	0.1	1
c1ccc(NN(Cc2cnccn2)c2ccccc2)cc1	-20%	1.5%	.	.	0.0	-5
CCc1nc(SCC(=O)Nc2ccccc2)c2c(=O)n(C)c(=O)n(C)c2n1	0%[15.4 µM]	1.5%	6%	.	-0.5	8
Cc1ccc(NC(=O)c2cc(S(=O)(=O)N3CCC4(CC3)OCCO4)ccc2F)cc1Cl	.	-1.2%	.	.	0.7	12
O=C(c1sc2ccccc2c1Cl)N1CCN(CCc2ccccn2)CC1	?	1.1%	6%	6.3	0.4	-5
CCOc1ccccc1C(=O)NC1CCN(Cc2ccccc2)CC1	-18%[15.4 µM]	-0.3%	-3%	-2.2	0.3	9
COc1ccc(CNC(=O)CSc2ncc(S(=O)(=O)c3ccc(C)c(Cl)c3)c(=O)[nH]2)cc1	.	-0.9%	.	.	1.1	-17
COc1ccc(C(CC(=O)Nc2cc(OC)cc(OC)c2)n2cccc2)cc1 (configuration not stated)	0%[15.4 µM]	-1.1%	-3%	4.1	0.5	-26
CCN1C[C@@H]2[C@@H]3C(=O)N(Cc4ccccc4)C(=O)[C@@H]3[C@](Cc3ccccc3)(C1=O)N2C(=O)c1ccc(C)cc1	.	-0.7%	1%	.	0.2	1
CN(Cc1ccccc1)C(=O)c1ccc(NC(=O)Cc2ccc(NC(=O)C3CCCN(C(=O)C4CCCC4)C3)cc2)cc1 (configuration not stated)	.	-0.9%	3%	.	0.8	5
C/C(=N\N1CCN(c2ccccc2)CC1)c1cccs1	-11%[15.4 µM]	.	2%	-1.1	1.3	6
CCCCOc1ccc(C(=O)NCC(=O)NCC(c2cccs2)N2CCOCC2)cc1 (configuration not stated)	?	1.8%	-4%	.	0.2	-2
COc1ccccc1CNS(=O)(=O)c1cc2c3c(c1)CCN3C(=O)CC2	-13%	-2.3%&0.4%	5%	.	0.6&-0.6	18&8
CCc1nnc(NC(=O)CCC(=O)NC2CC2)s1	1%	-0.5%	0%	.	0.6	-14
CCC(C)[C@H](NC(=O)N1CC(=O)Nc2ccccc21)C(=O)N[C@H](C(=O)O)c1ccccc1 (some centres not stated)	-28%	-5.1%	0%	.	0.2	-14
COc1ccccc1C(=O)Nc1nnc(-c2ccc(F)cc2)s1	4%	.	-16%	0.2	-0.2	4
O=C(NC1CC1)c1ccccc1NC(=O)c1ccccc1OC(F)F	9%	2.4%	.	.	-0.6	8
COc1ccc(CN(C(=O)c2snc(C(N)=O)c2N)C(C)C(=O)NCc2ccc(F)cc2)cc1 (configuration not stated)	4%[15.4 µM]	.	?	3.2	0.1	0
O=C(C1CCN(Cc2ccccc2)CC1)N1CCN(C/C=C/c2ccccc2)CC1	13%	-3.1%	4%	0.3	0.0	-3

Next part.
Structure	gsp ag	ClpP mod	gsp antagonist	Menin MLL FP FL	TRPML1 ag	TRPML1 blocker
COc1ccc(NS(=O)(=O)c2ccc(C)c(C(=O)NCc3cccnc3)c2)cc1	0%[15.4 µM]	-4.0%	12%	.	0.5	-7
CCOc1ccc(-c2nc(N)nc(C)c2-c2ccc(Cl)cc2)c(O)c1	7%	-6.5%	-11%	-12	1.7	-19
O=C(c1ccccc1-n1cccn1)N1CCc2c([nH]c3ccccc23)C1c1ccccn1 (configuration not stated)	15%[15.4 µM]	.	-16%	0.4	0.1	6
CCOC(=O)N1CCN(CCC(=O)Nc2cc(C)ccc2OC)CC1	-10%[15.4 µM]	.	8%	0.9	-0.2	15
CN(CC(=O)Nc1ccc(F)c(F)c1F)C(=O)CC1OC(=O)c2ccccc21 (configuration not stated)	17%	-17%	5%	.	0.2	48
NNC(=O)C1CC1(c1ccccc1)c1ccccc1 (configuration not stated)	11%[15.4 µM]	-2.4%	3%	0.3	-0.7	15
